Compound activity as filed in PubChem.
P. yoelii liver: Plasmodium liver-stage growth inhibition, dose response, imaging, Malaria Box, P. yoelii, HepG2-A16-CD81EGFP (AID 602156); P. yoelii liver stage in HepG2-A16-CD81EGFP, imaging; first-round cut-off not given here; calls after a first round at 10 µM; hits with a dose series show IC50 in µM; hit rate 4.8% among 5,700; in the data active = a potency from the dose series;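 note: infected cells exposed to compound for 48 hours before fixation; stained parasite area by imaging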
Calls only; i = inactive. A portion of the library; the hit share may differ from the screen's.

SMILES	P. yoelii liver
CCCC(=O)O[C@]1(C(=O)CCl)[C@@H](C)CC2C3CCC4=CC(=O)C=C[C@]4(C)[C@@]3(F)C(=O)C[C@@]21C (some centres undefined)	i
